Screening data as filed in PubChem BioAssay.
NPYLR7 agonist: activates Aedes aegypti NPYLR7 receptor. HEK293T NPYLR7/Galpha15, GCaMP6s calcium fluorescence. activation, % at 10 µM. 270,000 compounds, 0.15% hits. AID 1259423; in the data active = activation above about 40%;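 also: 0% = vehicle and 100% = reference agonist at the receptor; some compounds past the cut are filed as inactive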
NPYLR7 agonist max-min: second read-out of NPYLR7 agonist, no call of its own (marks repeat the call); activation, %; measured here: Max-Min RFU normalised activation; some inactives read as strong as hits;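 span of the calcium signal over five minutes; 0% = vehicle and 100% = native peptide agonist; compound fluorescence can raise it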
* marks the source's active call; other numbers are inactive results; & = joins results of further samples.

A first look, 13 compounds:
(1) CC(C)Oc1ccc(C(O)=C2C(=O)C(=O)N(CCCN3CCOCC3)C2c2ccco2)cc1 (centres undefined)
(2) Cc1cn2c3c(=O)n(Cc4ccc(F)cc4)c(=O)n(C)c3nc2n1-c1ccc(F)cc1
(3) C=CCNc1nc(N(c2ccccc2)c2ccccc2)nc(-n2ccnc2)n1
(4) O=C(Nc1[nH]ncc1-c1ccc2c(c1)OCO2)C1CC1c1ccco1 (centres undefined)
(5) O=C(NCCCC(=O)N1CCC(c2ccc(F)cc2)CC1)OCc1ccccc1
(6) COc1ccc(C2CC(c3c(O)n(C)c(=S)[nH]c3=O)=NN2)cc1 (centres undefined)
(7) CCCC(=O)N1CCCC1(C)C(=O)NCCc1ccccn1 (centres undefined)
(8) O=C(NC(=S)NC1CCS(=O)(=O)C1)c1ccccc1 (centres undefined)

compound no.	1	2	3	4	5	6	7	8
NPYLR7 agonist	-2.6	-2.2	-8.7	2.2	14.8	2.3	3.4	1.6
NPYLR7 agonist max-min	-3.0	0.8	-10.3	1.4	-2.6	49.7	1.0	34.4

(9) COc1cccc(C(=O)Nc2cc(-c3nc4cc(C)cc(C)c4o3)ccc2C)c1
(10) CCc1nc2n(n1)C(=O)C(C(c1ccc(Cl)c(Cl)c1)N1CCOCC1)S2 (centres undefined)
(11) Cc1c(C23CC4CC(CC(C4)C2)C3)cn2ccccc12
(12) Cc1cc(-n2cnnc2CCNc2ccccc2)n(C)n1
(13) COc1ccc(-c2nc3ccccc3o2)cn1

compound no.	9	10	11	12	13
NPYLR7 agonist	7.3	-7.3	-5.6	2.4	1.0
NPYLR7 agonist max-min	-2.4	-11.1	-5.4	4.4	-5.9

Results, from the start:
(1) CC(C)Oc1ccc(C(O)=C2C(=O)C(=O)N(CCCN3CCOCC3)C2c2ccco2)cc1 (centres undefined)
(2) Cc1cn2c3c(=O)n(Cc4ccc(F)cc4)c(=O)n(C)c3nc2n1-c1ccc(F)cc1
(3) C=CCNc1nc(N(c2ccccc2)c2ccccc2)nc(-n2ccnc2)n1
(4) O=C(Nc1[nH]ncc1-c1ccc2c(c1)OCO2)C1CC1c1ccco1 (centres undefined)
(5) O=C(NCCCC(=O)N1CCC(c2ccc(F)cc2)CC1)OCc1ccccc1
(6) COc1ccc(C2CC(c3c(O)n(C)c(=S)[nH]c3=O)=NN2)cc1 (centres undefined)

compound no.	1	2	3	4	5	6
NPYLR7 agonist	-2.6	-2.2	-8.7	2.2	14.8	2.3
NPYLR7 agonist max-min	-3.0	0.8	-10.3	1.4	-2.6	49.7

(7) CCCC(=O)N1CCCC1(C)C(=O)NCCc1ccccn1 (centres undefined)
(8) O=C(NC(=S)NC1CCS(=O)(=O)C1)c1ccccc1 (centres undefined)
(9) COc1cccc(C(=O)Nc2cc(-c3nc4cc(C)cc(C)c4o3)ccc2C)c1
(10) CCc1nc2n(n1)C(=O)C(C(c1ccc(Cl)c(Cl)c1)N1CCOCC1)S2 (centres undefined)
(11) Cc1c(C23CC4CC(CC(C4)C2)C3)cn2ccccc12
(12) Cc1cc(-n2cnnc2CCNc2ccccc2)n(C)n1

compound no.	7	8	9	10	11	12
NPYLR7 agonist	3.4	1.6	7.3	-7.3	-5.6	2.4
NPYLR7 agonist max-min	1.0	34.4	-2.4	-11.1	-5.4	4.4

(13) COc1ccc(-c2nc3ccccc3o2)cn1
(14) CN1C(=O)CC(C(=O)O)SC1=Nc1ccc(F)cc1 (centres undefined)
(15) COCCNc1nc(NCCNC(C)=O)c2sc(-c3ccccc3)cc2n1
(16) COC(=O)C1=C(C)OC(=O)C1(NC(=O)c1ccc(C(C)(C)C)cc1)C(F)(F)F (centres undefined)
(17) COc1ccc(C(=O)Nc2ccc3nn(-c4ccccc4)nc3c2)cc1[N+](=O)[O-]
(18) N[C@@H](CC(=O)N1CCn2c(nnc2C(F)(F)F)C1)Cc1cc(F)c(F)cc1F

compound no.	13	14	15	16	17	18
NPYLR7 agonist	1.0	-13.9	5.7	6.4	-6.0	-19.8
NPYLR7 agonist max-min	-5.9	-20.2	2.1	4.3	-17.5	-28.1

(19) CCOC(=O)C1CCCN(C(=O)c2ccc(Nc3c(Oc4ccc(C(C)C)cc4)cnn(C)c3=O)cc2)C1 (centres undefined)
(20) CCC(C)N(Cc1c(C)nn(-c2ccccc2)c1N1CCN(CC)CC1)C(=O)c1ccc(F)cc1 (centres undefined)
(21) COc1ccc(-c2nc3ccccc3c(=O)n2Cc2ccc(Cl)cc2)c2ccccc12
(22) O=C(c1cccs1)N(Cc1cccnc1)c1nc2cc3c(cc2s1)OCO3
(23) O=C(NCCNc1nc(-c2cccs2)nc2cc(Cl)ccc12)c1ccc(C(F)(F)F)cc1
(24) COc1ccc(C(=O)N2CCCC(CO)(Cc3ccccc3C)C2)o1 (centres undefined)

compound no.	19	20	21	22	23	24
NPYLR7 agonist	4.2	0.4	2.5	-8.1	2.4	17.2
NPYLR7 agonist max-min	11.8	-1.4	1.3	-0.1	13.8	19.1

(25) COC(=O)c1cc(OC(=O)c2cccs2)n(C)n1
(26) O=C(CCC1CCCN(C(=O)Cn2cccn2)C1)N1CCN(Cc2ccccc2)CC1 (centres undefined)
(27) COc1ccc(OC2CCN(C(C)=O)CC2)c(C(=O)N2CCCCC2c2cccnc2)c1 (centres undefined)
(28) CNC(=O)[C@@H]1C[C@@H](N)CN1S(=O)(=O)N1CCc2ccccc2C1
(29) Cn1c(-c2ccccc2F)nn(CN2CCc3sccc3C2)c1=S
(30) Cc1nnc(CSCc2cccc(OC(F)F)c2)o1

compound no.	25	26	27	28	29	30
NPYLR7 agonist	35.0	11.2	3.0	2.1	5.0	6.8
NPYLR7 agonist max-min	22.3	5.5	1.3	0.7	10.0	4.7

(31) CCC(c1cccs1)n1cc2ncccc2c1O (centres undefined)
(32) CC(C)n1cc(C(=O)N(C)CC2COCCO2)cn1 (centres undefined)
(33) CCOC(=O)C1(C)CCN1C(=O)c1ccc2c(c1)CCO2 (centres undefined)
(34) Cc1ccc(-c2cc(C(=O)NC(C)c3ccccc3)n(-c3ccccc3)n2)cc1C (centres undefined)
(35) Cc1noc(C)c1CNC(=O)CN1C(=O)COc2cc(Br)ccc21
(36) C[C@H](c1ccccc1)n1c(=O)[nH]c2ncc(-c3cccc(N(C)C)c3)nc21

compound no.	31	32	33	34	35	36
NPYLR7 agonist	2.4	0.8	-3.1	-5.7	7.1	-7.7
NPYLR7 agonist max-min	-3.2	0.8	-8.2	-0.1	3.3	-11.3

(37) CCCc1cc(N2CCCC2)n2nc3nc(C)cc(C)c3c2n1
(38) CC(C)CNC(=O)N1CCCC(CC(=O)N2CCOC(C)(C)C2)C1 (centres undefined)
(39) O=C(Nc1cccc(C(=O)N2CCCC2C2CCCC2)c1)C1CCCO1 (centres undefined)
(40) CCc1ccc(C(=O)N(Cc2ccc(F)cc2)C(CC)CO)s1 (centres undefined)
(41) COc1ccccc1N1CCN(CC(=O)Nc2ccccc2SC)C1=O
(42) CC1CCN(C(=O)Cn2nnc(-c3cccs3)n2)CC1

compound no.	37	38	39	40	41	42
NPYLR7 agonist	3.3	7.5	7.9	-0.3	-9.4	22.0
NPYLR7 agonist max-min	5.2	6.8	1.0	-0.5	-10.3	10.1

(43) O=C(Nc1ccc(N2CCN(C(=O)CCCOc3ccccc3)CC2)nc1)c1ccccc1F
(44) FC(F)(F)c1ccc(Cn2ccnc2CNCc2cccnc2)cc1
(45) CN(C)c1ccc(NC(=O)c2ccccc2Cl)cc1CN(Cc1ccco1)C(=O)c1cccs1
(46) CN1CCC(=NNC(=O)CSCc2ccccc2)CC1
(47) COc1ccc2c(c1)C1(SC(C)(C)CN1C(=O)Nc1ccc(F)cc1F)C(=O)N2 (centres undefined)
(48) CCSc1nc2nc3c(cn2n1)C(=O)CC(c1cccs1)C3 (centres undefined)

compound no.	43	44	45	46	47	48
NPYLR7 agonist	10.6	-4.8	-5.9	-15.2	-3.3	4.8
NPYLR7 agonist max-min	15.3	6.6	-2.4	-18.6	-2.9	4.1

(49) COc1ccc(F)cc1CN(C)Cc1nc2sccc2c(=O)[nH]1
(50) O=C(CCc1nnc(-c2ccccc2)o1)NCC1(c2ccccc2)CCCCC1
(51) CC(NC(=O)c1cccc2ccnn12)c1nc2c(s1)CCCC2 (centres undefined)
(52) Clc1cccc(Oc2cc(N3CCOCC3)ncn2)c1
(53) CC(=O)Nc1ccc(S(=O)(=O)N(C)CC(=O)N2CCCC2c2ccc3c(c2)OCCO3)cc1 (centres undefined)
(54) Cc1nc2sccn2c1C=Cc1nc2ccccc2s1

compound no.	49	50	51	52	53	54
NPYLR7 agonist	-2.3&8.6	2.7	10.7	6.7	1.5	7.4
NPYLR7 agonist max-min	-2.6&2.7	-3.5	37.8	10.8	2.6	11.5

(55) N#Cc1ccccc1NC(=O)CN1CCC(OCc2ccccc2)CC1
(56) OC1CCN(c2cc(N3CCOC(C(F)(F)F)C3)ncn2)CC1 (centres undefined)
(57) COC(=O)c1ccc(C2Nc3c(C(=O)O)cccc3C3C4CCC(C4)C23)cc1 (centres undefined)
(58) COc1ccc(OC)c(C2SCCN2C(=O)Nc2ccc(C)c(C)c2)c1 (centres undefined)
(59) CC(C)[C@@H](C(N)=O)n1cc(CCc2ccccc2)nn1
(60) O=C(Cc1ccccc1Cl)Nc1cccnc1Oc1ccccc1

compound no.	55	56	57	58	59	60
NPYLR7 agonist	7.9	6.7	-17.2	13.9	0.0	2.8
NPYLR7 agonist max-min	3.4	-1.6	-19.5	12.2	-0.5	0.8

(61) CCOCCCNCC(=O)N1CCc2sccc2C1c1ccc(Cl)cc1Cl (centres undefined)
(62) Cc1cc([N+](=O)[O-])ccc1NC(=O)CC1SC(=Nc2ccccc2)N(c2ccccc2)C1=O (centres undefined)
(63) Cc1ccn2cc(C(=O)NC(C3CC3)C3CC3)nc2c1
(64) COCC1(C(=O)N(C)Cc2ncc(C)c(OC)c2C)CCC1
(65) COc1ccc(OC(F)(F)F)cc1CC1(C)C(=O)Nc2c(Cl)cccc21 (centres undefined)
(66) O=C(COc1ccccc1)NCCCn1nc(-c2cccs2)ccc1=O

compound no.	61	62	63	64	65	66
NPYLR7 agonist	-9.6	-3.1	6.0	-7.9	1.5	-3.8
NPYLR7 agonist max-min	-17.7	6.8	-0.2	-10.1	2.0	-4.7

(67) COC(C)(C)CC(C)NCC(=O)Nc1ccc(F)cc1C (centres undefined)
(68) CC(C)n1c2ccccc2c2nc3ccccc3nc21
(69) Cc1cc(C(C)(C)C)cc(C)c1CC1=NCCN1
(70) O=C(Cn1nc2c(c1NC(=O)CC1CCCCC1)CSC2)NCC1CCCO1 (centres undefined)
(71) O=C(c1cccc(Cl)c1)N1CCc2ccccc2C1c1ccc(F)cc1 (centres undefined)
(72) COc1cc(OC)cc(-n2c(CCC(=O)N3CCc4ccccc4C3)cc3c2-c2ccccc2CC3)c1

compound no.	67	68	69	70	71	72
NPYLR7 agonist	10.8	3.0	-11.4&1.9&0.2	-5.4	23.3	20.5
NPYLR7 agonist max-min	5.8	1.7	-14.1&-4.0&-16.3	-4.5	13.7	11.3

(73) CCn1nnc2c(Nc3ccc(Br)cc3)ncnc21
(74) COc1ccc(-c2cc(C(=O)NCCN(C)C)n(-c3ccc(F)cc3)n2)c(OC)c1
(75) Cc1nc(N=Nc2cc(S(=O)(=O)O)c3cc([N+](=O)[O-])cc(S(=O)(=O)O)c3c2)c(COP(=O)(O)O)c(C=O)c1O
(76) Cn1c(=O)n(C)c2cc(CNC(=O)C(=O)c3ccco3)ccc21
(77) Cc1ccccc1-n1ncc2c(C(C)C)nn(CC(=O)N3CCc4ccccc43)c(=O)c21
(78) Cc1ccccc1C(CC(=O)N(C)Cc1cnn(C)c1)c1ccccc1 (centres undefined)

compound no.	73	74	75	76	77	78
NPYLR7 agonist	4.2	-1.5	2.9	8.3	8.0	4.2
NPYLR7 agonist max-min	9.3	7.5	-34.6	0.6	3.7	4.0

Single records, as listed above.
`COc1ccc(-c2cc(C(=O)NCCN(C)C)n(-c3ccc(F)cc3)n2)c(OC)c1` is listed with NPYLR7 agonist: -1.5; NPYLR7 agonist max-min: 7.5
`Cc1nc(N=Nc2cc(S(=O)(=O)O)c3cc([N+](=O)[O-])cc(S(=O)(=O)O)c3c2)c(COP(=O)(O)O)c(C=O)c1O` is listed with NPYLR7 agonist: 2.9; NPYLR7 agonist max-min: -34.6

(cont.)
(79) CCCc1cc(-c2cccnc2OCC)nc(C)n1
(80) C=C(C)Cn1c(N2CCN(c3ccccc3)CC2)nc2c1c(=O)n(C)c(=O)n2C
(81) CC1CCc2ccccc2N1CC(=O)NC1CCCC1 (centres undefined)
(82) COc1cccc(-c2cc(C(=O)N3CCN(c4ccccc4F)CC3)n(-c3cccc([N+](=O)[O-])c3)n2)c1
(83) O=C(NCc1cc(C(F)(F)F)ccc1Cl)c1cncn1-c1cccc(-c2cccc3c2sc2ccccc23)c1
(84) O=C1CC2(CCN(C(=O)C3CC34c3ccccc3-c3ccccc34)CC2)Oc2ccccc21 (centres undefined)

compound no.	79	80	81	82	83	84
NPYLR7 agonist	-5.2	-15.7	5.5	-5.7	11.4	-9.3
NPYLR7 agonist max-min	-6.9	-15.7	4.7	2.0	5.3	-14.8

(85) CN1CCCC2(CCN(Cc3cn(CC(=O)O)c4ccccc34)C2)C1=O (centres undefined)
(86) COc1ccc(C)cc1S(=O)(=O)NCCc1csc2nc(-c3cccs3)nn12
(87) Cn1c(=O)c2c(nc3n2CC(c2ccc(Cl)cc2)=NN3Cc2ccc(F)cc2)n(C)c1=O
(88) CC(=NNc1nc(C)cc(=O)[nH]1)c1ccc(C2CCCCC2)cc1
(89) O=C(NCCc1ccc2c(c1)OCCO2)C12CC3CC(CC(C3)C1)C2
(90) CC(=O)N1CCN(C(=O)CSc2nnnn2-c2cccc(C)c2C)CC1
(91) CSc1ccc(C=C(C#N)S(=O)(=O)c2ccc(Br)cc2)cc1

compound no.	85	86	87	88	89	90	91
NPYLR7 agonist	2.5	0.1	-1.4	1.9	-1.8	9.2	15.0
NPYLR7 agonist max-min	1.5	-2.5	5.6	0.6	-4.0	3.7	21.4

Some of the compounds tested (hit frequency here may not be typical).
